Screening data deposited in PubChem by several laboratories.
Vif TR-FRET – inhibitors of Vif binding to APOBEC3G peptide, primary screen, biochemical, TR-FRET, GST-Vif 1-94, biotin-A3G peptide, dose response retest (AID 1117319); Virion infectivity factor (Human immunodeficiency virus type 1 group M subtype B (isolate …; TR-FRET GST-Vif / biotin-A3G peptide binding; higher % means a stronger effect; test concentration not given here; strong numbers were not always called active; inhibition, %, or IC50 in µM where a hit was titrated; hit rate 0.57% among 260,000;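 active means above the screen mean plus three standard deviations and confirmed in dose response; inconclusive means results disagree or hit not tested in dose response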;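 further: Vif residues 1-94 fused to GST binding biotinylated APOBEC3G peptide 110-148; 0% = full assay without inhibitor and 100% = GST in place of GST-Vif; retest series ran down from 100 µM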
LANA-H2B inh – blockers of LANA interaction with H2A/H2B – biochemical, FP readout, HTS, primary screen. cell-free LANA-H2A/H2B peptide, fluorescence polarization. hit rate 0.6% among 320,000. inhibition, % (test concentration not listed); in the data active means inhibition mostly above about 10%, no sharp cut-off; inactive means mostly below about 6.7%;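 further: stock transfer was 7.5 nL into about 10 µL; 0% = median of vehicle wells and 100% = median of positive control wells; one replicate is shown; the record names a cut of 25% in any replicate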
HNF4A DNA FP – change in binding of human HNF4A to DNA, primary screen, biochemical, fluorescence polarization, FITC-DNA; Hepatocyte nuclear factor 4-alpha (Homo sapiens), P41235; 1 h; activity change, % at 10 µM; hit rate 0.3% among 360,000; AID 1224865, 2016; in the data active means activity change above about 30%, passing the limit was not always enough;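 further: controls were the assay level and a saturating level of protein; the project sought stronger binding though the title names inhibitors; some compounds called inactive have numbers as strong as hits; positive values seem to mean higher polarization but the record does not say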
Target sequence (P41235 whole entry, looked up): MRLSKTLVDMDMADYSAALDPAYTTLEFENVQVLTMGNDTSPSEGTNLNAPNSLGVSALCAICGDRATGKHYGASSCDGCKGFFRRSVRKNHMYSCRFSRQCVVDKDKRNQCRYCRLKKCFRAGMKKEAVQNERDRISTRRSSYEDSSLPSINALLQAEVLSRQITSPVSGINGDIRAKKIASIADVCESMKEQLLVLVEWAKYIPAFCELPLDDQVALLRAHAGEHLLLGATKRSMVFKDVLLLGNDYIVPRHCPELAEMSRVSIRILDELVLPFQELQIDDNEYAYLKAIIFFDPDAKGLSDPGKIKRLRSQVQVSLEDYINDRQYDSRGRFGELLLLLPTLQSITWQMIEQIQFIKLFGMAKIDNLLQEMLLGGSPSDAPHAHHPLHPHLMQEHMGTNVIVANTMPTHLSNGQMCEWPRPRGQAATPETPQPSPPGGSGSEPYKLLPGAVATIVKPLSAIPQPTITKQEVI
A1 inh – caspase 3/7 activation in MEF A1-2A-BIM cells, primary screen, A1 inhibitor project, cell-based, luminescence, HTS. Caspase-Glo 3/7 luminescence, 3 h; percent of clofoctol response, vehicle zero. caspase activation, % (concentration not given with the values). AID 2462, 2010. hit rate 0.066% among 330,000;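 active means over half of replicate activation scores above 10%, or exactly half above 10 with the replicate mean above 10; inconclusive means replicate mean below 10 yet half the replicates above 10; inactive means over half of replicates below 10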;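 further: wells of about 30 µL received 50 nL stock; many hits fall short of the cut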
Beta2AR agonist – beta2AR agonists driving receptor internalization, primary screen, cell-based, FAP fluorogen, flow cytometry | Am2.2-beta2AR cells; reference of the scale not given here | response, % (concentration not given with the values) | hit rate 0.43% among 340,000 | AID 504454, 2011;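 active means response above a set limit, near 3 SD of response in nonfluorescent compounds, cut at about 42% in these data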;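 further: stock transfer was 100 nL into about 11 µL; a reference agonist was the positive control; negative values mostly stem from fluorescent compounds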
Ecoli growth – E. coli growth inhibition, primary screen, OD600; Escherichia coli growth, 23 h; hits give low values; OD600 absorbance (no concentration beside the values); hit rate 0.21% among 330,000; AID 1053175, 2014;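 active means OD600 absorbance below the run mean of sample wells minus 3.6 SD, in any replicate, cut at about 0.56 in these data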;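 further: stock transfer was 300 nL into about 60 µL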
UCH37 inh – inhibitors of human UCH37 deubiquitinase, primary screen, biochemical, Ub-AMC cleavage, fluorescence. hit rate 0.33% among 330,000. purified proteasome/UCH37. Ubiquitin carboxyl-terminal hydrolase isozyme L5 (Homo sapiens), Q9Y5K5. inhibition, % (concentration not given with the values). AID 588478, 2011;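 active means mean of two replicates above 20%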;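 further: 0% = compound-free wells with enzyme and 100% = wells lacking proteasome; stock transfer was 100 nL into about 20 µL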
Target sequence (Q9Y5K5 whole entry, looked up): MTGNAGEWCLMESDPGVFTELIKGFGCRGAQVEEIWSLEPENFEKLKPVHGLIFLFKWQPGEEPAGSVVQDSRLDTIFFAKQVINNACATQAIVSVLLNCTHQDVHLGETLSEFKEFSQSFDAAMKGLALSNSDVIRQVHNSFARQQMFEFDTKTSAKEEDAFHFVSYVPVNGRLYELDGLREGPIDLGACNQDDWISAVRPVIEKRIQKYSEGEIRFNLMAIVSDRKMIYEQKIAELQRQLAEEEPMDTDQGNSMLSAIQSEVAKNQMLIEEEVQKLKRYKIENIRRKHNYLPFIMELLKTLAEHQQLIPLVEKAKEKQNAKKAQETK
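Material: Human UCH37 enzyme supplied as purified proteasome complex | Schedule: 30 min preincubation with enzyme, 25 min cleavage at room temperature | Detection: AMC fluorescence 355/460 nm | Measure: % inhibition of Ub-AMC cleavage fluorescence | Controls: Wells without proteasome as full block, compound-free enzyme plus substrate as uninhibited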
An asterisk follows results filed as active; i = inactive; ? = inconclusive; nt = not tested or not shown; & = joins results of further samples. Random draw from the library; any-hit rate near 2.1%.

Results follow in this order: A1 inh	LANA-H2B inh	Vif TR-FRET	Beta2AR agonist	HNF4A DNA FP	Ecoli growth	UCH37 inh
COC(=O)c1ccc(COc2ccc(NC(C)=O)cc2)o1
  1.4	3.5	19.1%	1.2	0.1	0.668	2.2
COc1ccc(S(=O)(=O)N2CCC(C(=O)c3ccc4c(c3)OCCO4)CC2)cc1
  -1.7	1.4	15.2%	-1.4	1.9	0.704	0.5
O=C(CCn1cccn1)Nc1ccc2c(c1)OCO2
  -1.3	14.9*	nt	-3.8	1.0	0.71	2.9
Cn1nc(C(=O)NCCN2CCOCC2)c2ccccc2c1=O
  2.3	5.4	0.5%	2.5	0.0	0.728	7.1
CC(=O)Nc1ccc(C(=O)NC2CCCC2)cc1
  0.5	-1.2	27.6%	-10.4	-2.7	0.713	1.1
COc1ccc(C2C(C(=O)c3ccco3)=C(O)C(=O)N2CCc2ccccc2)cc1OC (stereo not given)
  0.8	i	6.7%	-3.2	-0.6	0.73	10.0
Cc1ccc(N2CC(C(=O)Nc3nnc(SCC(N)=O)s3)CC2=O)cc1 (stereo not given)
  0.8	2.8	-2.6%	-6.0	-2.5	0.71	-0.7
COc1ccc(N2CCN(C(CNC(=O)C3CCCCC3)c3cccnc3)CC2)cc1 (stereo not given)
  0.4	-1.1	3.2%	-1.0	1.5	0.691	0.9
CCCN(CCC)Cc1c(C(=O)N/N=C/c2ccc(Br)cc2)nnn1-c1nonc1N
  0.2	-3.5	nt	-4.4	0.7	nt	nt
Cc1ccccc1NC(=S)NC(=O)CCc1ccccc1
  -0.3	2.0	5.3%	6.0	-30.3	0.737	-0.3
COc1ccc(N2CCN(C(=O)c3ccc(COc4ccc5c(C)cc(=O)oc5c4)cc3)CC2)cc1
  -0.8	-9.1	5.9%	17.1	-4.1	0.749	-7.2
O=S(=O)(Nc1nc2ccccc2nc1NCCN1CCOCC1)c1cccc(Cl)c1
  -0.5	0.2	12.3%	0.3	1.5	0.726	2.1
CC(C)CNC(=O)COc1cccc(C(=O)NCc2ccccc2)c1
  -0.2	0.6	-6.2%	4.0	0.5	0.702	35.8*
COc1ccc(CCNC(=O)CCNC(=O)c2ccc(Br)cc2)cc1OC
  0.3	3.8	nt	-2.5	-4.3	0.7	1.6
CC1CCN(S(=O)(=O)c2cn(CC(=O)Nc3cccc(C#N)c3)cn2)CC1
  0.2	-5.9	nt	-0.2	1.0	0.673	4.5
COc1ccc(C(=O)c2ccc(OC)cc2O)c(O)c1
  -2.8	-2.8	4.6%	6.5	1.2	0.741	-2.3
CCN(C(=O)CCc1nnc2ccc(NCc3ccco3)nn12)c1ccccc1
  0.2	-0.8	nt	2.3	3.7	0.673	2.8
NC(Cc1c[nH]c2ccc(OCc3ccccc3)cc12)C(=O)O (stereo not given)
  -0.8	1.2	nt	1.8	-1.7	0.701	-2.2
Cc1nc(Sc2nnnn2C)c2c3c(sc2n1)CCC3
  0.4	1.5	-6.9%	21.0	2.1	0.798	-15.7
Cc1ccc(C)c(COc2coc(CN3CCN(C(=O)c4ccco4)CC3)cc2=O)c1
  -0.2	-0.8	10.4%	6.6	-3.2	0.647	1.0
Cc1ccc(NC(=O)c2cnc(N3CCN(c4ccccn4)CC3)c3ccccc23)c(Br)c1
  -0.8	-1.5	-8.5%	22.9	-1.8	0.749	-250.5
O=S(=O)(c1ccc(Cl)cc1)N1CCC2(CC1)OCCN2S(=O)(=O)c1cccs1
  nt	nt	-6.8%	-0.2	-1.5	0.655	3.1
O=C(Cc1ccccc1)Nc1ccc2c(c1)CCC2
  -1.2	-0.8	0.7%	-4.8	2.8	0.668	6.1
Cc1ccc(Oc2cc(-n3nc(C)cc3C)ncn2)cc1
  -2.7	-1.4	6.2%	-10.5	-0.5	0.696	4.3
CCOc1ccccc1N(CC(=O)NC1CCCCC1)C(=O)CCC(=O)Nc1nccs1
  0.2	-1.0	nt	-3.5	3.3	0.65	2.0
O=C(CC1=NC2(CCCC2)Cc2ccccc21)N1CCOCC1
  ?	1.9	-4.0%	-5.7	2.9	0.706	9.9
CCOc1ccc(-n2cc(-c3ccccc3)c3c(SC(C)C(=O)OC)ncnc32)cc1 (stereo not given)
  0.6	3.7	16.2%	0.7	-1.6	0.723	-1.5
CC(C)(C)n1nnnc1C(c1ccc(F)cc1)N1CCC(C(N)=O)CC1 (stereo not given)
  0.5	-2.5	?	4.6	0.5	0.703	5.5
CC(C)(C)NC(=O)CCc1nnc(Cc2c[nH]c3ccccc23)o1
  0.1	2.3	-5.5%	1.1	-0.9	0.689	0.4
NC(=O)c1cc2ccccc2o/c1=N\NC(=O)c1ccncc1
  0.5	4.0	4.8%	-5.2	-1.3	nt	nt
Cc1nc(C)c(C(=O)OCC(=O)Nc2ccccc2SCC#N)s1
  0.0	0.7	nt	-44.4	11.6	0.704	1.2
COc1cccc(C(=O)Nc2ccc(-c3nc4ccccc4o3)c(O)c2)c1
  0.1	-11.1	-3.2%	19.5	-1.9	0.669	i
O=C(COC(=O)CC1CC2CCC1C2)Nc1c(F)cccc1F (stereo not given)
  -0.7	0.1	-2.0%	-2.9	-2.0	0.693	0.2
NS(=O)(=O)c1ccc(CNS(=O)(=O)c2ccc3c(c2)OCCO3)cc1
  -0.4	2.4	nt	0.7	0.3	0.662	-0.4
CC(=O)N1CCN(S(=O)(=O)c2cccc(C(=O)NNC(=O)Cn3ccc(C(F)(F)F)n3)c2)CC1
  0.0	2.3	8.3%	-8.2	3.2	0.655	0.1
O=C(CCc1ccccc1)NNC(=O)Nc1ccc(Br)cc1
  0.4	1.6	nt	-4.8	4.2	0.674	-0.1
O=C(CCc1ccc(F)c(F)c1)NC1CCCN(Cc2ccc(Cl)cc2)C1 (stereo not given)
  -0.4	-7.6	nt	-3.4	2.3	0.705	0.6
Cc1csc(NC(=O)CSCc2c(C)noc2C)n1
  0.9	-6.6	nt	-0.7	-3.4	0.627	-2.0
COc1ccc(NC(=O)CSc2nncc(=O)n2N)cc1OC
  0.4	3.5	-3.1%	2.9	-0.8	0.688	8.0
O=[N+]([O-])c1ccc2sc(SCc3nc4ccccn4c3Br)nc2c1
  -1.0	2.0	nt	nt	nt	0.709	-0.8
NNc1nc2ccccc2c(=O)n1Cc1ccccc1
  -0.9	-0.2	nt	1.8	-2.8	0.66	-58.7
COc1ccc2c([N+](=O)[O-])c(Cl)[nH]c2c1
  -0.6	2.4	21.2%	-2.0	-18.5	0.671	-7.2
CC(=O)C(C(c1ccccc1)N1CCCc2ccccc21)N1CCOCC1 (stereo not given)
  nt	nt	-4.4%	1.0	-16.8	0.672	4.8
CCCCc1nc2cc(C(=O)N3CCNC(=O)C3CC(=O)OC)ccc2o1 (stereo not given)
  -0.2	0.4	nt	-3.8	2.7	0.7	4.6
COC(=O)CCNC(=O)Cc1ccc(S(=O)(=O)N2CCCCC2)s1
  nt	nt	-3.0%	10.0	6.1	0.64	0.7
CNC(=O)c1c(O)c2cccc3c2n(c1=O)CCC3
  2.2	-1.5	nt	1.6	0.2	0.562	-7.9
CCOC(=O)CSc1[nH]c2cc(OC)ccc2c1[N+](=O)[O-]
  -0.2	0.1	1.3%	5.3	-1.2	0.68	1.2
CC1(C)C(=O)Nc2ccccc2N1C(=O)COC(=O)C1CCCCC1
  -0.1	1.2	2.2%	-5.9	-0.7	0.679	2.6
CSc1ccccc1NC(=O)CSCc1ccccc1Br
  0.5	-17.7	0.4%	6.1	-1.9	0.745	3.6
Nc1c(C(=O)NCc2ccco2)nnn1-c1ccccc1
  0.6	1.5	-1.2%	-3.0	1.9	0.719	0.7
COc1ccc([C@H]2CC(=O)C=C(c3ccc4c(c3)OCO4)C2)cc1
  -1.2	5.1	nt	-8.8	-2.0	0.748	-4.5
CC(=O)Cc1nsc(NC(=O)c2ccccc2)n1
  -1.5	-5.3	5.9%	9.0	0.7	0.662	2.0
CCO/C=N/c1c(C#N)c2c(c(=S)n1C)COC(C)(C)C2
  -0.1	-1.4	-7.0%	-0.4	-2.0	nt	nt
CS(=O)(=O)N(CC(=O)N1CCN(c2ccccc2F)CC1)c1ccc2c(c1)OCCO2
  nt	nt	2.0%	-2.7	-4.3	0.709	1.2
Cc1ccc(NC(=O)CNC(=O)c2ccco2)cc1
  0.3	-2.9	-4.9%	1.1	0.1	0.66	-0.2
CCn1c(COc2ccc(C)cc2)nnc1SCC(=O)NCc1ccco1
  0.3	-2.2	nt	-1.9	2.9	0.673	-0.5
Cc1cccc(-n2cc(-c3ccccc3)c3c(N4CCOCC4)ncnc32)c1
  0.5	2.2	nt	19.1	1.0	0.719	3.0
COc1cc(O)c(C(CCN2CCN(c3ccccc3)CC2)c2cc(OC)c(OC)c(OC)c2)c(OC)c1 (stereo not given)
  0.8	7.4	4.8%	6.8	-2.0	0.66	1.8
c1ccc2c(c1)CCN(C1=Nc3cccc4cccc1c34)C2
  nt	nt	0.7%	-4.0	4.5	0.605	-0.4
Cc1ccc2c(c1)sc1nc(=O)ccn12
  0.5	-0.9	-7.0%	-5.7	0.5	nt	nt

(next part)
Results follow in this order: A1 inh	LANA-H2B inh	Vif TR-FRET	Beta2AR agonist	HNF4A DNA FP	Ecoli growth	UCH37 inh
CSc1ccccc1NC(=O)CSc1cccc[n+]1[O-]
  0.1	-4.6	-2.3%	0.0	0.2	0.65	0.6
O=C(/C=C/c1ccccc1)OCCN1C(=O)c2ccccc2C1=O
  0.5	-3.7	nt	-0.8	-1.8	0.645	3.0
CCOc1ccccc1CNC(=O)c1cc2occc2n1C
  0.5	-0.7	?	-2.1	-0.1	0.694	3.5
Cc1cccc(NS(=O)(=O)c2c(C(=O)N3CCOCC3)c(C)n(C)c2C)c1C
  0.0	-4.3	nt	-3.9	-1.3	0.673	-0.8
CNC(=O)c1c(NC(=O)c2cccc(N3C(=O)CCC3=O)c2)sc2c1CCC2
  1.7	1.5	nt	12.5	0.6	0.659	1.0
CCN1CCN(c2ccc(S(=O)(=O)N3CCCCC3)cc2NC(=O)C(C)Oc2ccc(F)cc2)CC1 (stereo not given)
  0.4	3.5	5.8%	10.5	-0.5	0.721	4.2
CCc1nnc(NC(=O)CCS(=O)(=O)c2ccc(C)cc2)s1
  0.0	0.6	-0.1%	-11.4	1.4	0.65	0.0
CC(=O)c1ccccc1OC(=O)c1ccc([N+](=O)[O-])o1
  0.2	-1.5	-1.4%	9.4	-3.8	0.648	12.2
COc1ccccc1C(c1nnnn1CS(=O)(=O)c1ccc(C)cc1)N1CCSCC1 (stereo not given)
  0.3	-2.0	1.6%&-8.4%	3.3	-2.0	0.68	2.6
Cc1cccc(NC(=S)N(C)C2(c3ccccc3Cl)CCCCC2=O)c1 (stereo not given)
  -0.1	0.1	-1.6%	1.2	2.3	0.732	-0.5
CCc1cc(C(=O)N2CCc3c([nH]c4ccccc34)C2c2ccc(OC)cc2F)no1 (stereo not given)
  -1.1	-1.5	nt	-5.6	1.5	0.709	-2.2
C(#Cc1ccccc1)CN1CCCCC1
  -0.9	-1.1	-6.2%	-1.4	-2.6	0.652	-0.2
COC(=O)c1cc(S(=O)(=O)N2CCN(c3ccc([N+](=O)[O-])cc3)CC2)c[nH]1
  -1.6	-1.3	nt	2.6	3.2	0.684	9.7
